D2 PAM = Beta-Arrestin HTS for Positive Allosteric Modulators of the Human D2 Dopamine Receptor: Potentiators | D(2) dopamine receptor (Homo sapiens), P14416 | DiscoveRx D2 beta-arrestin cells, luminescence, 90 min; 100% = 57 uM dopamine signal | potentiation, % (no concentration beside the values) | 0.23% of 360,000 active | AID 624464, 2012; active = potentiation of 50% or more; inconclusive = 30% to 50%; inactive = 30% or less;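 further: compound concentration not given in the record; tested on top of an EC20 dose of dopamine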
Target sequence (P14416 whole entry, looked up): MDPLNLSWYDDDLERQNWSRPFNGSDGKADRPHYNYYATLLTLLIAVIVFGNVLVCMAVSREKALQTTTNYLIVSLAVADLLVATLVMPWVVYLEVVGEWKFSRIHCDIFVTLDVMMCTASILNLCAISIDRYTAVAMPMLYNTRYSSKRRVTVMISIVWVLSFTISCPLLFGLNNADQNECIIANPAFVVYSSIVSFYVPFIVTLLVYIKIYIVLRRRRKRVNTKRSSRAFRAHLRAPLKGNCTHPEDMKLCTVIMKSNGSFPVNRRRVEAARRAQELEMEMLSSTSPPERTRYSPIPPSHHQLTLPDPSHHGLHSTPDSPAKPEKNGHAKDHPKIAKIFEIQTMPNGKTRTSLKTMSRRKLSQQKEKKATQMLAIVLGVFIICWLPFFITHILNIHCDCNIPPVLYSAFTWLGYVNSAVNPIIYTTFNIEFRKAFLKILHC
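PathHunter beta-arrestin assay in DiscoveRx D2 cells. Compounds were added with an EC20 of dopamine (50 nM final) for 90 min at 37 deg C. Luminescence was read 1 h after detection reagent, with 57 uM dopamine as the EC100 control.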
PINK1 expr mod = A Quantitative High throughput Screen to Identify Chemical Modulators of PINK1 Expression; 0.2% of 410,000 active; AID 624263, 2012; PINK1 immunofluorescence, high-content cytometry, 24 h; Potency, µM (titrated, usually from 76.6 µM), without a hit: at the top dose activation (PINK1 increase), most hits filed as activators; active = well fitted activation curve with a large enough effect; inconclusive = small, poorly fitted or top-dose-only effect; inactive = flat fitted curve, though single readings scatter; cell line not stated here;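 further: potency means the concentration at half of the fitted maximal effect; % of control where 0% means no effect; nearly all actives have a fitted effect of over 65% in size; a mitochondrial uncoupler was the plate control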
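Cells are seeded, rested 12 hours, then given compound at five concentrations or DMSO for 24 hours. After fixation, blocking and antibody staining, PINK1 amount and mitochondrial localization are scored; CCCP serves as control.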
Six1-Eya2 inh = qHTS Assay for Inhibitors of the Six1/Eya2 Interaction; Homeobox protein SIX1 (Homo sapiens) + Protein phosphatase EYA2 (Homo sapiens), …; AlphaScreen GST-Six1/His-Eya2 binding, biochemical; active compounds read low; control for the full effect not named in the record; activity change, % (concentration not given with the values); 0.56% of 360,000 active; AID 651725, 2012; in the data active = activity change below about -65%; inconclusive = about -30% to -65%; inactive = above about -30%; further: on the % scale 0 is the no-effect control and ±100 the full control effect
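Homogeneous AlphaScreen proximity assay pairing GST-Six1 with His-tagged Eya2 (added as 5X mix: 250 nM and 500 nM) in 50 mM Tris pH 8.0, 300 mM NaCl, 1 mM TCEP. Glutathione donor and nickel acceptor beads; 1 h, 37 °C, dark.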
TRPML1 blocker = qHTS for Inhibitors of the Human Mucolipin Transient Receptor Potential 1 (TRPML1) | Mucolipin-1 (Homo sapiens), Q9GZU1 | TRPML1-inducible cells, Ca2+ dye fluorescence, FDSS; active compounds read low; inhibition of EC80 agonist-evoked calcium signal | activity change, negative = inhibition, % (test concentration not listed) | 0.02% of 390,000 active | AID 624415, 2012; in the data active means activity change below about -50%; inconclusive means about -30% to -50%; inactive means above about -30%;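 further: stimulus is agonist 54-4 at its EC80 concentration; on the % scale 0 is the no-effect control and ±100 the full control effect; compound concentration not given in the record; the text of the record puts the active cut at -80%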
Target sequence (Q9GZU1 whole entry, looked up): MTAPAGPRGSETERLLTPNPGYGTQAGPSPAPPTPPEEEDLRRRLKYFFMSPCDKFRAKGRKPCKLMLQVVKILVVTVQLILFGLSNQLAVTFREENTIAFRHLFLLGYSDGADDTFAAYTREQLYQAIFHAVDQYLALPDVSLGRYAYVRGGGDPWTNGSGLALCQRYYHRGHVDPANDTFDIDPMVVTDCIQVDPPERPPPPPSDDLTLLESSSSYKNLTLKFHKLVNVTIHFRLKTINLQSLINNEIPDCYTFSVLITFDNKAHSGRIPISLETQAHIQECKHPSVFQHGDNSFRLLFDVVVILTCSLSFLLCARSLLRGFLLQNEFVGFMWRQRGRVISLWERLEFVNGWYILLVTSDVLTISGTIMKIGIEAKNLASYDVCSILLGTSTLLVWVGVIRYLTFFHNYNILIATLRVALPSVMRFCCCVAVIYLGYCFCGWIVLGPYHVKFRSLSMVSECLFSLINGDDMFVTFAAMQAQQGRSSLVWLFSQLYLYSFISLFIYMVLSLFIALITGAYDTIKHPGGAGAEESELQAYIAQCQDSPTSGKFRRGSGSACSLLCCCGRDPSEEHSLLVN
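Tet-induced TRPML1-DL cells loaded with Ca8 no-wash calcium dye were read kinetically on FDSS. Compound addition was followed by EC80 agonist 54-4 (4 uM final); inhibition was read over 110 s.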
D2 ag = Beta-Arrestin HTS for Positive Allosteric Modulators of the Human D2 Dopamine Receptor: Agonists | DiscoveRx PathHunter D2 beta-arrestin, luminescence, 90 min; 100% = 57 uM dopamine signal | activation, % (concentration not given with the values) | AID 624465, 2012 | 0.084% of 360,000 active | D(2) dopamine receptor (Homo sapiens), P14416; in the data active = activation above about 40%; inconclusive = about 15% to 40%; inactive = below about 15%; further: compound concentration not given in the record; the text of the record calls up to 30% inactive
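Agonist mode: compounds alone added to overnight-plated D2 PathHunter cells for 90 min at 37 C, with 57 uM final dopamine (EC100) defining full response. Beta-arrestin recruitment detected by chemiluminescent reagent, read after 1 h at ambient temperature.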
TRPML1 agonist = qHTS for Agonists of the Human Mucolipin Transient Receptor Potential 1 (TRPML1); Mucolipin-1 (Homo sapiens), Q9GZU1; activation, % (concentration not given with the values); AID 624414, 2012; 0.12% of 410,000 active; TRPML1-expressing cells, Ca2+ dye fluorescence, FDSS; host cell line not named in the record; reference of the full effect not given here; in the data active = activation above about 50%; inconclusive = about 30% to 50%; inactive = below about 30%; further: 0% is about no effect; the text of the record puts the active cut at 80%
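Calcium fluorescence on an FDSS kinetic reader gave the read-out. Tet-induced TRPML1-DL cells were plated overnight, dye-loaded (Ca8 with quencher, 45-90 min, room temperature, dark), then read 110 s after compound addition, and again 110 s after 4uM final 54-4 (EC80).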
* = called active by the depositor; ? = inconclusive; . = no result given; & = joins results of further samples; [ ] = another dose, or the depositor's remark.

A first look, three compounds:
SMILES	D2 PAM	PINK1 expr mod	Six1-Eya2 inh	TRPML1 blocker	D2 ag	TRPML1 agonist
Cc1ccc(C2=NN(CCC#N)C(=O)CO2)cc1	-10	-1.0%	-1	-12	-1.1	0.4
O=C(NCc1cccnc1)c1cc(C2CCCCN2C(=O)CCc2ccccc2)on1 (stereo not given)	-6	0.6%	3	.	-6.6	-0.4
O=c1cnnc(NCc2ccccc2)[nH]1	-15	-2.3%	2	-11	-2.1	1.6

The whole of this part, repeating the preview:
SMILES	D2 PAM	PINK1 expr mod	Six1-Eya2 inh	TRPML1 blocker	D2 ag	TRPML1 agonist
Cc1ccc(C2=NN(CCC#N)C(=O)CO2)cc1	-10	-1.0%	-1	-12	-1.1	0.4
O=C(NCc1cccnc1)c1cc(C2CCCCN2C(=O)CCc2ccccc2)on1 (stereo not given)	-6	0.6%	3	.	-6.6	-0.4
O=c1cnnc(NCc2ccccc2)[nH]1	-15	-2.3%	2	-11	-2.1	1.6
Cc1nc(C(=O)Nc2cc(F)cc(Cl)c2)sc1C1(C)CC(c2ccccc2)=NO1 (stereo not given)	-23	1.6%	7	14	-1.2	0.4
Cc1ccsc1C(=O)OCc1cc(=O)n2ccsc2n1	-13	0.2%	-7	10	-4.1	-0.5
Cc1onc(-c2ccc(Cl)cc2Cl)c1-c1csc(N/N=C/c2ccccc2)n1	2	4.1%	-2	14	13	-0.2
O=C(CN1C(=O)COc2ccccc2C1=O)c1ccc2c(c1)OCCO2	-1	-0.6%	3	-1	1.7	3.7
Cc1c(Cl)cccc1NC(=S)Nc1ccccn1	9	0.6%	2	17	0.8	1.1
O=C1OC(/C(=C\Nc2cc(Cl)ccc2O)[N+](=O)[O-])c2ccccc21 (stereo not given)	4	2.7%	5	16	3.2	0.1
CCN(Cc1ccccc1)S(=O)(=O)c1ccc(C(=O)N(CCCN(C)C)c2nc3cc4c(cc3s2)OCCO4)cc1	-27	-2.5%	?	41	-3.5	0.1
CC(=O)Nc1ccc(C(=O)NCC2CCCCC2)cc1	3	-0.3%	6	5	4.4	1.1
Cc1cccc(NC2=CC(=O)OC(C)C2)c1 (stereo not given)	-10	1.0%	9	11	0.9	-0.2
CC(C)N1CCCC(C)(C(=O)Nc2nc3ccccc3n2C)C1 (stereo not given)	2	0.6%	8	4	-3.1	-0.6
O=C(Cn1nnc(-c2ccccc2Cl)n1)N/N=C/c1ccc2c(c1)OCO2	-9	2.2%	-7	12	-1.9	-0.5
CCOc1ccc(-n2nnnc2SCC(=O)NNC(=O)c2ccco2)cc1	-12	0.2%	4	5	-0.8	0.7
CC1CCN(C(=O)CCCC(=O)O)CC1	-16	3.4%	3	-6	-1.0	0.6
NS(=O)(=O)c1ccc(N=Cc2ccc(Br)s2)cc1	5	2.4%	-11	-1	-2.9	-0.2
CCN(CCCNC(=O)CCCN1C(=O)COc2ccc(C)cc21)c1cccc(C)c1	-13	0.9%[38.3 µM]	-17	0	-2.9	2.0
O=C1[C@H]2[C@H](C=CC[C@H]2C(=O)N2CCOCC2)CCN1Cc1ccccc1	-5	1.1%	-1	-17	-3.2	0.5&-0.7
O=C(Nc1cc(Oc2ccccc2)cc([N+](=O)[O-])c1)C12CC3CC(C1)CC(n1cnc(Cl)n1)(C3)C2	-26	-0.3%	-16	-18	-3.0	1.0
O=C1CCCCCN1Cc1nnc(SCc2nc3ccccc3s2)n1-c1ccccn1	1	0.2%	5	-1	-1.7	-0.2
Cc1ccc(N(CC(N)=O)C2SC(=O)N(Cc3ccccc3)C2=O)cc1 (stereo not given)	-2	1.3%[38.3 µM]	-3	4	-0.5	5.9
CCOc1ccc(CCNC(=O)C2CCN(S(=O)(=O)CC)CC2)cc1OCC	-18	-0.3%[38.3 µM]	2	8	-2.3	-0.3
Cc1ccc(S(=O)(=O)C(CNC(=O)C(=O)NCc2ccc(Cl)cc2)c2cccs2)cc1 (stereo not given)	.	4.3%	.	-4	.	-0.3
O=C1ON=C(c2ccc([N+](=O)[O-])cc2)/C1=C/c1ccccc1O	2	9.6%	-4	3	1.4	-0.6
Cc1ccc(Cn2c(C(=O)NCCCN3CCOCC3)cc3sccc32)cc1	-23	-3.6%[38.3 µM]	2	-10	-3.4	0.0
CC[C@H]1C=C[C@@H](C(C(=O)OC)C(=O)OC)CN1C(C)=O	-1	-0.7%	-19	0	-3.3	-0.7
Cc1cc2cc(CN(Cc3ccco3)C(=O)C3CCCCC3)c(=O)[nH]c2cc1C	-5	5.6%	-6	16	-3.0	-0.3
CCCCCCC#Cc1ccc2c(c1)COc1c3ccccc3nn1-2	-1	-1.0%	4	19	-2.4	-0.3
COc1ccc(C(=O)/C=C/c2ccc(OC3CSC3)cc2)cc1	-7	-2.1%	-3	17	-5.0	1.2
CCOC(=O)N1CCC(NC(=O)C2CCCN(S(=O)(=O)c3cccc4nsnc34)C2)CC1 (stereo not given)	-17	2.0%	5	23	-1.7	0.8
O=CC1=C(c2ccccc2)Oc2ccccc2O1	5	-1.5%	-4	4	-0.5	-0.7
CC(=O)NC(CCS(C)(=O)=O)C(=O)Nc1ccc(F)cc1Cl (stereo not given)	8	0.2%	6	3	-0.3	-0.5
CCN(CC)c1ccc(/C=C/c2cccc[n+]2C)c(OC)c1	-6	10µM*	11	-1	-5.2	24
CCOc1cccc2sc(N(CCN(CC)CC)C(=O)c3cccc([N+](=O)[O-])c3)nc12	-22	0.8%	0	23	-3.0	-0.7
COc1ccc(N2CCN(C3CCN(S(=O)(=O)c4ccc(F)cc4)CC3)CC2)cc1	-3	-0.3%	1	-5	-3.0	-0.6
O=C(CN(Cc1ccccc1)C(=O)CNS(=O)(=O)c1ccccc1)NCC1CCCO1 (stereo not given)	-5	-0.9%	8	3	2.9	-0.1
CC(C)Oc1ccc(CNC(=O)c2cnc3sc(N4CCCCCC4)nn3c2=O)cc1	.	1.3%	.	13	.	-0.3
Cc1nn(-c2ccccc2)c(Cl)c1/C=N/NS(=O)(=O)c1ccc(Br)cc1	-14	6.8%	-12	22	-3.3	1.1
O=C(COC(=O)CNC(=O)C1CCCCC1)NCc1ccccc1	0	0.7%	-3	17	-0.9	-0.7
CCN(Cc1ccc2c(c1)OCCO2)C(=O)CSc1nc(C)nc2sc(C)c(C)c12	1	-0.7%	-3	-5	-0.4	3.3
CCOc1ccc(CCN2C(=S)N([C@@H](Cc3ccc(O)cc3)CN3CCC[C@@H]3CN3C(=S)NC[C@@H]3Cc3ccccc3)C[C@@H]2Cc2ccc(O)cc2)cc1	-11	3.9%	-15	1	-2.4	-0.2
CCOC(=O)c1cccc(NC(=O)c2cc3sccc3n2Cc2ccc(Cl)cc2)c1	.	0.4%	.	-11	.	0.5
CCNc1nnc(SCC(=O)NC2CCCCCC2)s1	-12	4.0%	4	7	-2.3	0.8
O=C(C[C@H]1C/C=C\CC[C@H](Cc2ccc(F)cc2)C(=O)O[C@@H](c2ccccc2)CNC1=O)N[C@@H](CO)Cc1ccccc1	8	1.2%	4	16	2.2	2.9
CC(O)[C@H]1CN=C(N)N1CCc1cc(C(F)(F)F)cc(C(F)(F)F)c1 (stereo not given in full)	-4	0.6%	8	-4	-1.9	0.0
Cc1cc(=O)[nH]c(N=N/C(=N/Nc2ccccc2C)c2ccccc2)n1	0	1.9%	-5	-9	-9.0	2.1
Cc1ccccc1N=Nc1ccc(O)c2ncccc12	-30	6.0%	?	-5	-3.6	1.8
CCOC(=O)c1c(C)[nH]c(C)c1C(=O)COC(=O)c1sccc1C	-10	1.7%	-13	-9	1.3	3.1
Cc1ccc(NC(=O)CSc2ccccc2)cc1S(=O)(=O)N1CCOCC1	12	-5.7%	-4	-12	2.4	0.6
CCOC(=O)[C@]12CCC=C1N(Cc1cccc3ccccc13)C(=O)[C@H](CC(=O)NCC1CCCCC1)C2	.	-0.3%	-11	.	.	-0.5
CSc1ccc(CNCC2CCCO2)cc1 (stereo not given)	-8	-0.5%	-10	-7	-1.9	0.5
CCN(C(=O)COC(=O)/C=C/c1c(C)nn(Cc2ccc(C)cc2)c1C)C1CCS(=O)(=O)C1 (stereo not given)	-38	0.1%	-4	0	-1.5	0.1
O=C(Oc1ccc(F)c(F)c1)c1ccc2c(=O)n3c(nc2c1)CCC3	-1	2.8%	-6	18	0.9	-0.3
CCCCn1nnnc1C1(C)CCC(=O)N1CCCn1ccnc1 (stereo not given)	.	-1.4%	-1	.	.	-0.2
O=C(Nc1ccc(Cl)c([N+](=O)[O-])c1)c1ccc(NCCCN2CCOCC2)c([N+](=O)[O-])c1	-1	4.3%[38.3 µM]	-1	-1	0.1	0.1
Cc1cn2c(=O)cc(COC(=O)c3cccc(NC(=O)C(C)Oc4ccccc4)c3)nc2s1 (stereo not given)	.	-0.7%	.	8	.	3.2
COc1ccc(CC(=O)NNC(=O)c2ccc(Br)s2)cc1OC	2	0.5%	-2	1	1.5	0.3
O=C(COC(=O)c1cccc(S(=O)(=O)N2CCOCC2)c1)Nc1ncc(Cl)cc1Cl	-3	0.3%	-1	8	-0.8	-0.5
Cc1cc(OCC(=O)N[C@@H](Cc2ccccc2)c2nc3ccccc3[nH]2)ccc1Cl	-9	8.8%	3	28	0.8	1.2

Continued:
SMILES	D2 PAM	PINK1 expr mod	Six1-Eya2 inh	TRPML1 blocker	D2 ag	TRPML1 agonist
CCCCCC(=O)N1CCCC(c2nc(-c3ccc(OC)cc3)no2)C1 (stereo not given)	-8	-3.5%	5	10	-3.8	2.5
COc1ccc(/C=C2\OC(=S)N(C)C2=O)cc1	-2	-1.6%[38.3 µM]	0	-1	-1.2	0.2
O=[N+]([O-])c1ccc2c(c1)C(N1CCOCC1)/C(=C/COc1ccc(Cl)cc1Cl)O2 (stereo not given)	-30	0.1%	-24	62	-7.8	0.1
Cc1cc(C(F)(F)F)n2ncc(-c3cccc(Br)c3)c2n1	-3	10.0%	0	15	-2.6	1.0
Cc1c(NS(=O)(=O)c2ccc(Cl)c(C(=O)OCC(=O)NCc3ccco3)c2)c(=O)n(-c2ccccc2)n1C	-22	0.2%	-13	11	-4.8	-1.1
Cc1ccc(C(=O)NNc2nc3ccccc3nc2C(F)(F)F)cc1	-3	1.5%	-6	-14	-2.7	-0.1
O=C(CSc1nnnn1-c1ccccc1F)Nc1nc2ccccc2s1	-9	10%[38.3 µM]	-8	15	0.0	0.6

Screening data deposited in PubChem BioAssay by National Center for Advancing Translational Sciences (NCATS).

Rows are unselected; any-hit rate near 1%.
